Env fusion inh: HIV envelope-mediated fusion inhibition. HeLa-JRFL Env/CEM21 cell fusion, luciferase. inhibition, % at 12.3 µM. 1.1% of 360,000 active;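 active = mean replicate inhibition score of at least 50 and every replicate individually at or above 50; inconclusive = only one of the two criteria met; inactive = mean below 50 and not all replicates reaching 50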;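 note: 0% = plate neutral controls and 100% = maraviroc near 300 nM; one replicate is shown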
Active calls of the source: *; ? = inconclusive; [ ] = another dose, or the depositor's remark. Some of the compounds tested; the hit share may differ from the screen's.

Env fusion inh | compound
0[16.7 µM] | C[C@@H]1CN([C@H](C)CO)C(=O)c2cc(Br)cnc2O[C@@H]1CN(C)C(=O)C1CCC1
11 | COc1ccc(C2=CC(=O)CC(C)(C)C2=O)cc1
26[16.7 µM] | COCCNC(=O)C[C@@H]1C[C@H]2c3cc(NC(=O)Nc4ccc(C(F)(F)F)cc4)ccc3O[C@H]2[C@H](CO)O1
5[16.7 µM] | CO[C@H]1CN(C)C(=O)c2ccc(NC(=O)C3CCC3)cc2OC[C@@H](C)N(CC2CCCCC2)C[C@H]1C
5[16.7 µM] | C[C@@H]1CN([C@H](C)CO)C(=O)c2cc(C#CC3CC3)cnc2O[C@@H]1CN(C)C(=O)C1CCCCC1
-9[16.7 µM] | CC(C)NC(=O)Nc1ccc2c(c1)C(=O)N([C@@H](C)CO)C[C@H](C)[C@@H](CN(C)Cc1ccccc1)OCCCC[C@@H](C)O2
9[16.7 µM] | C[C@H]1CN([C@@H](C)CO)C(=O)c2cc(-c3ccc(F)cc3)cnc2O[C@H]1CN(C)C(=O)Cc1ccccn1
-5[16.7 µM] | CCCC#Cc1cnc2c(c1)C(=O)N([C@@H](C)CO)C[C@H](C)[C@H](CN(C)S(=O)(=O)c1cn(C)cn1)O2
3[16.7 µM] | CO[C@H]1CN(C)C(=O)c2cc(NC(=O)c3ccccc3F)ccc2OC[C@H](C)N(CC2CCOCC2)C[C@@H]1C
-21[16.7 µM] | CCNC(=O)c1cc2c(c(-c3cccc(-c4cccc(OC)c4)c3)n1)[C@@H](CCO)N([S@](=O)C(C)(C)C)C2
-4[16.7 µM] | CO[C@H]1CN(C)C(=O)c2cc(NC(=O)NC(C)C)ccc2OC[C@@H](C)N(Cc2cncnc2)C[C@H]1C
-12[16.7 µM] | COc1ccc2c3c([nH]c2c1)[C@@H](CO)N(Cc1cccnc1)CC31CCN(C(=O)c2cccnc2)CC1
-9[16.7 µM] | COc1ccc(S(=O)(=O)Nc2ccc3c(c2)C(=O)N([C@@H](C)CO)C[C@@H](C)[C@@H](CN(C)C)OCCCC[C@@H](C)O3)cc1
-6 | Cc1cccc(N=O)n1
-6[16.7 µM] | O=C(C[C@@H]1CC[C@@H]2[C@H](COC[C@@H](O)CN2CC2CCCC2)O1)NCC1CC1
-15[16.7 µM] | C[C@H]1CN([C@@H](C)CO)C(=O)c2cccc(NC(=O)C3CCOCC3)c2O[C@@H]1CN(C)C(=O)Nc1ccc2c(c1)OCO2
10[16.7 µM] | O=C(Cc1ccncc1)Nc1ccc2c(c1)[C@H]1C[C@H](CC(=O)N3CCc4ccccc4C3)O[C@H](CO)[C@H]1O2
-57[16.7 µM] | Cc1noc(C)c1NC(=O)NC[C@H]1CC[C@H]2[C@H](CN2Cc2cccc(-c3ccccn3)c2)O1
12[16.7 µM] | CCC(=O)Nc1ccc2c(c1)C(=O)N(C)C[C@@H](OC)[C@H](C)CN(C(=O)Nc1ccccc1F)[C@H](C)CO2
-10[16.7 µM] | COc1ccc2c3c(n(C)c2c1)[C@@H](CO)N(C(=O)Cc1ccccn1)CC31CN(CC2CCOCC2)C1

Structural class: the compounds so far containing four or more nitrogen atoms
Env fusion inh | compound
-9[16.7 µM] | CC(C)NC(=O)Nc1ccc2c(c1)C(=O)N([C@@H](C)CO)C[C@H](C)[C@@H](CN(C)Cc1ccccc1)OCCCC[C@@H](C)O2
9[16.7 µM] | C[C@H]1CN([C@@H](C)CO)C(=O)c2cc(-c3ccc(F)cc3)cnc2O[C@H]1CN(C)C(=O)Cc1ccccn1
-5[16.7 µM] | CCCC#Cc1cnc2c(c1)C(=O)N([C@@H](C)CO)C[C@H](C)[C@H](CN(C)S(=O)(=O)c1cn(C)cn1)O2
-4[16.7 µM] | CO[C@H]1CN(C)C(=O)c2cc(NC(=O)NC(C)C)ccc2OC[C@@H](C)N(Cc2cncnc2)C[C@H]1C
-12[16.7 µM] | COc1ccc2c3c([nH]c2c1)[C@@H](CO)N(Cc1cccnc1)CC31CCN(C(=O)c2cccnc2)CC1
-15[16.7 µM] | C[C@H]1CN([C@@H](C)CO)C(=O)c2cccc(NC(=O)C3CCOCC3)c2O[C@@H]1CN(C)C(=O)Nc1ccc2c(c1)OCO2
-57[16.7 µM] | Cc1noc(C)c1NC(=O)NC[C@H]1CC[C@H]2[C@H](CN2Cc2cccc(-c3ccccn3)c2)O1
12[16.7 µM] | CCC(=O)Nc1ccc2c(c1)C(=O)N(C)C[C@@H](OC)[C@H](C)CN(C(=O)Nc1ccccc1F)[C@H](C)CO2
-10[16.7 µM] | COc1ccc2c3c(n(C)c2c1)[C@@H](CO)N(C(=O)Cc1ccccn1)CC31CN(CC2CCOCC2)C1

The list goes on.
Env fusion inh | compound
-6[16.7 µM] | CCCN1C[C@H](C)[C@@H](OC)CN(C)C(=O)c2cc(NC(=O)COC)ccc2OC[C@H]1C
-17 | CSC(=Cc1ccc(C(=O)c2ccc(C)cc2)n1C)S(C)=O (configuration not stated)
? | C[C@H](CO)N1C[C@H](C)[C@H](CN(C)CC2CC2)OCCCC[C@H](C)Oc2ccc(NC(=O)c3ccccc3)cc2C1=O
25 | c1ccc(Nc2nnc(-c3ccc4c(c3)OCO4)o2)cc1
3[16.7 µM] | O=C(C[C@@H]1C[C@H]2c3cc(NC(=O)c4ccc5c(c4)OCO5)ccc3O[C@H]2[C@@H](CO)O1)NCc1cc(F)ccc1F
9[16.7 µM] | C[C@H](CO)N1C[C@H](C)[C@H](CN(C)S(=O)(=O)c2cn(C)cn2)Oc2ccc(NS(=O)(=O)c3ccc(F)cc3)cc2C1=O
4[16.7 µM] | CO[C@H]1CN(C)C(=O)c2cc(NC(=O)Cc3ccccc3)ccc2OC[C@@H](C)NC[C@@H]1C
13[16.7 µM] | CCNC(=O)C[C@H]1CC[C@H]2[C@@H](COC[C@@H](O)CN2C(=O)c2ccccn2)O1
-13[16.7 µM] | CCS(=O)(=O)Nc1ccc2c(c1)C(=O)N(C)C[C@H](OC)[C@@H](C)CN(Cc1ccccn1)[C@@H](C)CO2
-8 | COc1ccc(CNC(=O)c2c(N)[nH]c(C(=O)c3ccccc3)c2-c2ccc3ccccc3c2)cc1OC
-4[16.7 µM] | COc1ccccc1CNC(=O)C[C@@H]1C[C@H]2c3cc(NC(=O)c4cccnc4)ccc3O[C@H]2[C@H](CO)O1
8 | COC(=O)C1=C(C)N(Cc2ccc(Cl)cc2)C(=S)NC1c1cccc(F)c1 (configuration not stated)
-6[16.7 µM] | O=C(C[C@H]1C[C@H]2c3cc(NC(=O)Nc4ccc(C(F)(F)F)cc4)ccc3O[C@H]2[C@@H](CO)O1)NCc1ccc(Cl)cc1
8[16.7 µM] | C[C@H](CO)N1C[C@H](C)[C@H](CN(C)S(=O)(=O)c2ccccc2)Oc2c(NC(=O)Nc3ccc(C(F)(F)F)cc3)cccc2C1=O
6 | COCC(=O)Nc1ccc2c(c1)[C@H]1C[C@@H](CC(=O)NCC3CC3)O[C@H](CO)[C@H]1O2
27[16.7 µM] | CCCN1C[C@H](C)[C@@H](OC)CN(C)C(=O)c2ccc(NC(=O)c3ccc(F)cc3)cc2OC[C@@H]1C
19[16.7 µM] | CO[C@H]1CN(C)C(=O)c2cc(NS(=O)(=O)CC(F)(F)F)ccc2OC[C@H](C)N(Cc2nccs2)C[C@H]1C
4[16.7 µM] | COCC(=O)Nc1ccc2c(c1)OC[C@@H](C)N(C(=O)NC(C)C)C[C@H](C)[C@@H](OC)CN(C)C2=O
-20[16.7 µM] | CO[C@H]1CC[C@H]2CCOc3ccc(C#N)cc3C(=O)N(C)CCCC(=O)N(C)C[C@H]1O2
-26[16.7 µM] | C[C@@H]1CN([C@H](C)CO)C(=O)c2ccccc2-c2ccccc2CO[C@H]1CN(C)C(=O)C1CC1

Arranged by length of the SMILES (falling): some entries from above
Env fusion inh | compound
9[16.7 µM] | C[C@H](CO)N1C[C@H](C)[C@H](CN(C)S(=O)(=O)c2cn(C)cn2)Oc2ccc(NS(=O)(=O)c3ccc(F)cc3)cc2C1=O
19[16.7 µM] | CO[C@H]1CN(C)C(=O)c2cc(NS(=O)(=O)CC(F)(F)F)ccc2OC[C@H](C)N(Cc2nccs2)C[C@H]1C
13[16.7 µM] | CCNC(=O)C[C@H]1CC[C@H]2[C@@H](COC[C@@H](O)CN2C(=O)c2ccccn2)O1

Further entries follow:
Env fusion inh | compound
-20 | O=C(C(=O)N1CCC(CNS(=O)(=O)c2cc(C(F)(F)F)cc(C(F)(F)F)c2)CC1)c1cccs1
20[16.7 µM] | CCCN1[C@@H]2Cn3c(ccc(/C=C/c4ccccc4)c3=O)[C@H]1[C@@H](C(=O)NCC)[C@@H]2CO
10 | CN1CCCCC(NC(=O)CCl)C1=O (configuration not stated)
10[16.7 µM] | C[C@@H]1CN([C@@H](C)CO)C(=O)c2cc(NS(=O)(=O)c3ccccc3)ccc2O[C@@H]1CN(C)S(=O)(=O)c1ccc(Cl)cc1
14[16.7 µM] | O=C(Nc1ccc(Cl)c(Cl)c1)N[C@@H]1CC[C@H](CCNC(=O)c2ccc(F)cc2)O[C@@H]1CO
65*[16.7 µM] | CO[C@H]1CN(C)C(=O)c2ccc(NC(=O)Nc3cccc(F)c3)cc2OC[C@@H](C)N(C(C)=O)C[C@H]1C
6[16.7 µM] | CN1C(=O)c2cc(NC(=O)C3CCOCC3)ccc2OC[C@H]2O[C@H](CC(=O)NCc3ccc4c(c3)OCO4)CC[C@H]21
-7[16.7 µM] | C[C@@H]1CN([C@@H](C)CO)C(=O)Cc2cc(NC(=O)Cn3cnnn3)ccc2O[C@H]1CN(C)C(=O)Nc1ccc(F)cc1
18[16.7 µM] | CCCN1C[C@H](C)[C@@H](OC)CN(C)C(=O)c2cc(NC(=O)Nc3ccccc3F)ccc2OC[C@H]1C
22[16.7 µM] | O=C(Nc1cc(F)ccc1F)N[C@@H]1CC[C@H](CC(=O)N2CCc3ccccc3C2)O[C@@H]1CO
-17[16.7 µM] | C[C@H]1CN([C@@H](C)CO)S(=O)(=O)c2ccc(-c3ccc(F)cc3)cc2O[C@H]1CN(C)C(=O)Nc1ccc(F)cc1
-11[16.7 µM] | CCC(=O)N1C[C@H](C)[C@@H](OC)CN(C)C(=O)c2ccc(NC(=O)C3CCCCC3)cc2OC[C@@H]1C
-67[16.7 µM] | Cc1noc(C)c1NC(=O)N(C)C[C@H]1OCc2ccccc2-c2c(n(C)c3ccccc23)C(=O)N([C@H](C)CO)C[C@H]1C
-14[16.7 µM] | C[C@H](O)C#Cc1cnc2c(c1)C(=O)N([C@H](C)CO)C[C@@H](C)[C@@H](CN(C)C(=O)Cc1ccncc1)O2
-60[16.7 µM] | CO[C@H]1CN(C)C(=O)c2ccc(NC(=O)C3CCOCC3)cc2OC[C@@H](C)N(C(=O)c2ccccc2)C[C@H]1C
14[16.7 µM] | C[C@@H]1CN([C@H](C)CO)C(=O)Cc2cc(NC(=O)Nc3ccc(C(F)(F)F)cc3)ccc2O[C@@H]1CN(C)S(=O)(=O)c1ccc(F)cc1
-39 | COC(=O)C1=C(C)N(Cc2ccccc2C(F)(F)F)C(=NCc2ccccc2C(F)(F)F)NC1c1ccc(F)cc1 (configuration not stated)
4[16.7 µM] | CCCNC(=O)N1C[C@H](C)[C@H](OC)CN(C)C(=O)c2ccc(NC(=O)CC)cc2OC[C@@H]1C
5[16.7 µM] | CCS(=O)(=O)N1CCC2(CC1)CN(Cc1ccccc1)[C@@H](CO)c1c2c2ccc(OC)cc2n1C
8[16.7 µM] | O=C(C[C@H]1CC[C@H]2[C@@H](COC[C@H](O)CN2C(=O)Cc2ccccc2)O1)NC1Cc2ccccc2C1

Additional compounds
Env fusion inh | compound
19[16.7 µM] | O=C(NCC1CC1)[C@@H]1[C@@H](CO)[C@@H]2Cn3c(ccc(-c4ccccc4F)c3=O)[C@H]1N2Cc1cccnc1
-21[16.7 µM] | CC(C)C[C@@H]1COCc2cn(nn2)CCCC(=O)N1
-7[16.7 µM] | CC(C)c1cn(CC[C@@H]2CC[C@H](NC(=O)C3CC3)[C@H](CO)O2)nn1
-13[16.7 µM] | O=C1CCCn2cc(nn2)COC[C@H](c2ccccc2)N1
28[16.7 µM] | C[C@H](NC(=O)C[C@@H]1CC[C@H]2[C@H](COc3ccc(NS(=O)(=O)c4ccc(Cl)cc4)cc3C(=O)N2C)O1)c1ccccc1
13[16.7 µM] | COCC(=O)N(C)C[C@H]1Oc2cc(-c3ccc(C#N)cc3)ccc2S(=O)(=O)N([C@H](C)CO)C[C@@H]1C
23[16.7 µM] | CC(C)NC(=O)Nc1ccc2c(c1)CC(=O)N([C@@H](C)CO)C[C@H](C)[C@H](CN(C)S(=O)(=O)c1ccccc1)O2
-3[16.7 µM] | O=C([C@H]1[C@H](CO)[C@H]2Cn3c(ccc(-c4cccnc4)c3=O)[C@H]2N1CCC(F)(F)F)N1CCOCC1
-4[16.7 µM] | CS(=O)(=O)Nc1ccc2c(c1)[C@@H]1C[C@@H](CC(=O)NCc3ccccn3)O[C@H](CO)[C@@H]1O2
5[16.7 µM] | CO[C@H]1CN(C)C(=O)c2ccc(NC(C)=O)cc2OC[C@H](C)N(C(=O)c2ccccc2F)C[C@@H]1C
24 | O=C1[C@@H](c2ccccc2)[C@@H](c2ccccc2)N1c1ccccc1
-1[16.7 µM] | CCS(=O)(=O)Nc1ccc2c(c1)C(=O)N(C)[C@H]1CC[C@H](CC(=O)NCc3ccccc3F)O[C@H]1CO2
-8[16.7 µM] | CCC(=O)N1CC2(CCN(C(C)=O)CC2)c2c([nH]c3cc(OC)ccc23)[C@H]1CO
32[16.7 µM] | C[C@@H]1CN([C@H](C)CO)C(=O)c2cccc(NC(=O)Nc3ccc(F)cc3)c2O[C@@H]1CN(C)S(=O)(=O)c1cn(C)cn1
-11[16.7 µM] | CN(C)CCCNC(=O)C[C@@H]1CC[C@@H]2[C@H](COC[C@@H](O)CN2CC2CCCC2)O1
8[16.7 µM] | C[C@@H]1CN([C@@H](C)CO)C(=O)c2ccccc2-c2ccccc2CO[C@@H]1CN(C)Cc1cccc(F)c1
2 | COCc1cc(N2CCN(C(=O)OC(C)(C)C)C[C@@H]2C)ccc1N1CCS(=O)(=O)CC1
